H5N1 CPE: antiviral screen in MDCK cells, H5N1 avian flu. 0.07% of 96,000 active. cytopathic effect, luminescence, 72 h; hits give high values; no value below 0 was filed and about half of the inactive calls have no number; reference of the scale not given here. inhibition, % at 50 µM. AID 740; in the data active means inhibition above about 25%
The depositor's hits bear a star; i = inactive. The list is partial (hit frequency here may not be typical).

Molecule,H5N1 CPE
Cc1ccc(N(CC(=O)Nc2ccc3c(c2)OCCO3)S(=O)(=O)c2c(C)n[nH]c2C)cc1,0.5
O=C(c1ccc(Cl)cc1)C1CCN(C(=O)C2CC2)CC1,2.2
Cc1ccc(/C=N/N2CCN(c3ccc(Cl)cc3)CC2)o1,i
COc1cccc(C(=O)Nc2ccc(S(=O)(=O)Nc3onc(C)c3C)cc2)c1,0.2
Cc1ccccc1-n1c(SCc2c(C)noc2C)nnc1-c1c[nH]c2ccccc12,i
Cc1cccc(C)c1N1CCN(C(=O)Nc2ccc3c(c2)OCCO3)CC1,i
Cn1c(N)c(C(=O)Nc2ccc3ccccc3c2)sc1=S,i
CSCCC(NC(=O)OC(C)(C)C)C(=O)NC(CC(C)C)C(N)=O (stereo unspecified),i
CCCC12CN3CC(C)(CN(C1)C3c1ccc(OC)cc1)C2=O (stereo unspecified),i
CN1CC(=O)N(CC(=O)NCCc2ccc(F)cc2)c2ccccc2C1=O,0.7
COc1cccc(-c2nc3n(n2)C(c2ccc4c(c2)OCO4)C(C(N)=O)=C(C)N3)c1 (stereo unspecified),0.1
Oc1ccc(Br)cc1-c1nc2cnccn2c1NC1CCCCC1,1.2
Cc1c(C(=O)NCc2ccccc2)cnn1-c1ccccc1,0.5
Cc1ccc(S(=O)(=O)NCCCCCC(=O)Nc2nccs2)cc1,i
C=CCn1c(COc2cccc(C)c2)nnc1SCC(=O)NC(=O)NCc1ccco1,0.8
Cc1cccc(C)c1NC(=O)c1c(C)nn(-c2ccccc2)c1Cl,i
CN1C(=O)CC(N2CCC(c3nc4ccccc4[nH]3)CC2)C1=O (stereo unspecified),1.1
CC1CCCCN1c1nnc(N)s1 (stereo unspecified),i
O=C(NCc1cccnc1)C1CCN(S(=O)(=O)c2cccs2)CC1,0.9
Fc1ccc(CSc2nnc(Cc3sc(-c4ccccc4)nc3-c3ccccc3)o2)cc1,i
CC1(C)Cc2cccc(OCC(=O)Nc3cccnc3)c2O1,1.0
COc1ccc(-c2cc(C(=O)N3CCOCC3)c3cc(C)ccc3n2)cc1,i
COC(=O)c1cc2sc(Cl)cc2n1Cc1nc(-c2ccccc2)oc1C,0.3
CC(C)(C)NC(=O)CN(C(=O)CNS(=O)(=O)c1ccccc1)c1ccc2c(c1)OCCO2,0.5
CN1/C(=C/C2CC(=O)N(c3cccc4ccccc34)C2=O)C(C)(C)c2ccccc21 (stereo unspecified),i
O=C(Nc1ccccc1N1CCCCC1)c1ncoc1-c1ccc(F)cc1,4.3
O=C1c2ccccc2C(=O)N1CCOCCN1C(=O)c2ccccc2C1=O,0.4
O=C(NCc1cccs1)c1nc2ncccn2n1,0.0
CC1CCOC2(O1)C(=O)N(CN1CCN(c3ccccc3F)CC1)c1ccccc12 (stereo unspecified),0.2
CCOC(=O)c1[nH]c(C)c(CN(CCc2ccc(OC)c(OC)c2)C(=O)CCCC(=O)O)c1C,1.2
O=C(COc1ccc(Cl)cc1Br)NNC(=O)C(=O)N1CCCCC1,i
CCC(=O)N1CCc2cc(Br)cc(S(=O)(=O)CCC(=O)NCCc3ccccc3)c21,0.6
Cc1nc2c(-c3ccccc3)c(C)nn2c(C)c1CCC(=O)NC(C)CCc1ccco1 (stereo unspecified),0.3
O=C(Nc1ccccc1C(=O)OCC(=O)N1CCc2ccccc2C1)c1ccco1,i
CC(C)C(=O)N1c2ccccc2NC2=C(C(=O)CCC2)C1c1ccc(N(C)C)cc1 (stereo unspecified),i
COc1ccc2nc(Nc3ccc4c(c3)OCO4)sc2c1,i
O=[N+]([O-])c1ccc2nc(SCc3ccccc3Cl)sc2c1,1.3
COC(=O)C(O)(c1c(C)[nH]c2ccccc12)C(F)(F)F (stereo unspecified),i
O=S(=O)(c1ccc(Oc2ncnc3scc(-c4ccccc4)c23)cc1)N1CCOCC1,i
N#C/C(=C\c1cc([N+](=O)[O-])c(N2CCCCC2)cc1N1CCCCC1)c1nn(-c2ccccc2)c(N)c1C#N,i
O=C(CNC(=O)c1ccc(Cl)cc1Cl)OCC(=O)c1ccc2c(c1)OCCO2,i
Cc1nc(NC(=O)c2ccccc2)sc1-c1csc(Nc2ccc(Cl)cc2Cl)n1,i
Cn1nnc2cc(C(=O)NCc3ccc4c(c3)OCO4)ccc21,i
O=S(=O)(c1ccc(F)c2ccccc12)N1CCCCC1,1.8
CCOC(=O)c1c(NC(=O)Cn2c(=O)oc3ccccc32)oc(C)c1C(C)=O,0.4
COc1ccc(OCC(=O)OCCN(C)C)cc1,2.1
CC(C)(CNC(=O)c1cc(=O)[nH]c2ccccc12)N1CCOCC1,i
O=C1C(=O)N(CCOCCO)C(c2ccccn2)/C1=C(\O)c1ccccc1 (stereo unspecified),i
C=CCOc1c(Cl)cc(CNc2ccc(C)c(Cl)c2)cc1OC,0.5
CC(C)(C)OC(=O)NNC(=O)c1ccc(Cl)cc1,0.3
CC(NC(=O)C1CCCC1)c1ccc2c(c1)OCCO2 (stereo unspecified),i
CCOC(=O)CC1=C(C(=O)OCC)C(c2ccncc2)C(C#N)=C(N)O1 (stereo unspecified),i
Cc1cc(C)nc(NS(=O)(=O)c2ccc(N3C(=O)C4CC=C(Cl)CC4C3=O)cc2)n1 (stereo unspecified),i
CCOC(=O)c1cnc(-c2ccccc2)nc1N,1.6
CN1CCc2c(sc3c2c(NCc2ccco2)nc2nnnn23)C1,1.9
N[C@@H](Cc1ccccc1)c1nnc2sc(SCc3ccccc3)nn12,1.8

A few values from the entries so far.
Reading for CN1CCc2c(sc3c2c(NCc2ccco2)nc2nnnn23)C1 under H5N1 CPE: 1.9
Reading for CC(C)(C)OC(=O)NNC(=O)c1ccc(Cl)cc1 under H5N1 CPE: 0.3

Retrieved by compound from the entries so far:
Molecule,H5N1 CPE
CCOC(=O)c1cnc(-c2ccccc2)nc1N,1.6
CC(NC(=O)C1CCCC1)c1ccc2c(c1)OCCO2 (stereo unspecified),i
C=CCOc1c(Cl)cc(CNc2ccc(C)c(Cl)c2)cc1OC,0.5

Next structures follow.
Molecule,H5N1 CPE
COc1ccccc1C(=O)NC(CCSC)C(=O)OCC(=O)NC(=O)NCc1ccco1 (stereo unspecified),i
COCc1[nH]nc2c1C(c1ccccc1F)C(C#N)=C(N)O2 (stereo unspecified),i
Cc1sc2c(c1C)CN(C(C)(C)C)CN2C(=O)c1ccccc1,0.5
COc1ccc2c(c1)CCc1sc(NC(=O)c3ccco3)nc1-2,i
COc1ccc(-c2cc(C(=O)OCC(=O)Nc3cc(C)on3)c3ccccc3n2)cc1OC,0.4
Cc1nc(/C=C/c2ccccc2)cc(/C=C/c2ccccc2)n1,0.3
COc1ccc(-n2c(SCC(=O)OC(C)C)nnc2-c2ccccn2)cc1,i
O=C(CN1CCCCCC1)OCCN=C1NS(=O)(=O)c2ccccc21,0.5
COc1ccc(S(=O)(=O)NCCc2c(C)nn(C)c2Oc2ccccc2)cc1,0.4
CCOc1ccc(N2CSC3=C(C#N)C(c4ccco4)CC(=O)N3C2)cc1 (stereo unspecified),i
CC(C)Oc1ccc(-c2nn(-c3ccccc3)cc2/C=c2\sc3ncnn3c2=O)cc1,2.2
CCOC(=O)c1[nH]c2ccc(Cl)cc2c1-c1ccccc1,i
C=CCOc1c(CNc2nccs2)cccc1OCC,i
COc1ccc(S(=O)(=O)N(C)c2ccc(OCC(=O)Nc3cc(C)on3)cc2)cc1,0.8
CCN(CC)CCCN1C(=O)c2oc3ccccc3c(=O)c2C1c1cccs1 (stereo unspecified),0.7
O=C(COC(=O)Cc1cccs1)Nc1ccccc1F,0.7

Structural class, those above containing a nitro group on carbon (2)
Molecule,H5N1 CPE
O=[N+]([O-])c1ccc2nc(SCc3ccccc3Cl)sc2c1,1.3
N#C/C(=C\c1cc([N+](=O)[O-])c(N2CCCCC2)cc1N1CCCCC1)c1nn(-c2ccccc2)c(N)c1C#N,i

New compounds follow.
Molecule,H5N1 CPE
Cc1ccc2c(c1)c1c3n2CC(=C2C(=O)OC(C)(C)OC2=O)NC3CCC1 (stereo unspecified),2.1
O=C(Cn1c(=O)oc2cc(S(=O)(=O)N3CCCC3)ccc21)Nc1cccc(C(F)(F)F)c1,0.1
Cn1c(=O)c2c(nc(N3CCN(c4ccccc4)CC3)n2CCCc2ccccc2)n(C)c1=O,0.9
O=C(Oc1cccc(-c2cnc3ccccc3n2)c1)c1ccco1,7.0
O=S(=O)(Nc1ccc2nc(-c3ccc(Br)o3)[nH]c2c1)c1ccccc1,i
O=S(=O)(c1cccc(C(F)(F)F)c1)N(CCCN1CCOCC1)Cc1cccs1,i
COC(=O)c1sccc1NC(=O)C1CC=CCC1C(=O)O (stereo unspecified),i
CCCn1c(=N)n(CC(=O)OCC)c2ccccc21,0.3
Nc1nonc1C(=O)OCC(=O)N1CCOCC1,i
CCOc1ccc(C(=O)N/N=C/c2cccc3cccnc23)cc1,i
O=C(Nc1ccc(F)cc1)c1ccc(-n2ccnc2)nc1,i
O=C(CC1NCCNC1=O)Nc1ccc2c(c1)OCO2 (stereo unspecified),0.1
CC1CCN(C(=O)c2ccc(S(=O)(=O)N(C)C)cc2)C(C)C1 (stereo unspecified),0.2
C/C(=N\NS(=O)(=O)c1ccc(Cl)c([N+](=O)[O-])c1)c1cc2ccccc2o1,0.7
Cc1cc(C[n+]2ccccc2)c2nsnc2c1,0.0
Cc1sc2nc(C(C)C)nc(SCC(=O)N3CCN(C(=O)c4ccco4)CC3)c2c1C,i
O=C(COc1ccccc1Br)N1CCN(c2ccccc2)CC1,i
N#C/C(=C(/O)CN1CCN(c2ccccc2F)CC1)c1nc(-c2ccc(Cl)cc2)cs1,0.2
CC1CCC(C(C)C)C(OC(=O)CSc2nccc(=O)[nH]2)C1 (stereo unspecified),0.4
Cc1cc(C)c(S(=O)(=O)c2ccccc2C)c(Oc2ccccc2)n1,0.7
CC(=O)N(C)c1ccc(OCC(O)CN(Cc2ccco2)S(=O)(=O)c2ccc(C)cc2)cc1 (stereo unspecified),i
COc1ccc(CCNC(=O)CN2CCN(c3ccccc3Cl)CC2)cc1,i
CCN1CCN(C(=O)c2ccccc2N(C)S(=O)(=O)c2ccc(C)cc2)CC1,0.6
COc1cc2c(cc1OC)CN(S(C)(=O)=O)CC2,1.1
O=C(CN1C2=NCCCN2c2ccccc21)c1ccc2c(c1)OCO2,i
CCn1c(=O)cc(SCC(=O)N2CCOCC2)c2ccccc21,0.3
O=C(NC(Cc1c[nH]c2ccccc12)C(=O)O)c1ccco1 (stereo unspecified),0.4
COc1ccc(S(=O)(=O)N(C)c2ccc(C(=O)NCCC(C)C)cc2)cc1,i
O=c1cc(CSc2nnc(-c3ccco3)o2)c2ccccc2[nH]1,i
Cc1cc(NC(=O)C(C)C)ncc1NC(=O)CCc1ccccc1,0.3
O=C(Cn1cc[n+](CC(=O)c2ccccc2)c1)c1ccccc1,i
CCCCOC(=O)n1c(=S)oc2cc(Cl)ccc21,i
COc1cccc(-n2ccnc2SCC(=O)Nc2nccs2)c1,i
CN1CCN(C(=S)Nc2ccc([N+](=O)[O-])cc2)CC1,i
CCOc1cc(S(=O)(=O)N2CCCCC2)ccc1F,0.5
COc1ccc(NC(=O)C2C3C=CC(C3)C2C(=O)NCc2ccccn2)c(OC)c1 (stereo unspecified),i
O=C(c1cc2c(s1)-c1ccccc1OC2)N1CCN(c2ccccc2)CC1,1.1
COc1ccc(NC(=O)C(NC(=O)OC(C)(C)C)C(C)OCc2ccccc2)cc1 (stereo unspecified),i
C/C(=N\OC(=O)c1ccccc1F)c1nccs1,i
COc1ccc(NC(=O)Cn2cc(C(=O)c3ccco3)c3ccccc32)cc1,i
Cc1ccc(-n2ncc3c(=O)[nH]c(SCC(=O)N4CCC(C)CC4)nc32)cc1C,1.6
CCn1cc(C(=O)c2cccs2)c2ccccc21,3.1
O=C1CSC(c2ccc(Cl)cc2)N1C1CCCCC1 (stereo unspecified),0.8
CCOC(=O)C1CCCN(C(=O)CCCn2nc(C)n3c(cc4sccc43)c2=O)C1 (stereo unspecified),2.6
CCC(=O)Nc1ccc2c(c1)nc(CN1CCN(C(C)=O)CC1)n2C,0.0
COc1cc(NC(=O)c2cc3nc(C4CC4)cc(C(F)(F)F)n3n2)c(OC)cc1Cl,0.3
CCOC(=O)CSc1nnc(Cn2c(=O)sc3ccccc32)n1-c1ccccc1C,1.7
CC(NC(=O)CCC(=O)NC(C)C1COc2ccccc2O1)C1COc2ccccc2O1 (stereo unspecified),i
NC(=O)COc1c(-c2ccccc2)oc2ccccc2c1=O,4.0
Cc1cc(NC(=O)CCC(=O)N(c2ccc(F)cc2)C2(C(=O)NC3CCCCC3)CCCC2)no1,i
CC(C)OC(=O)c1c2nc3ccccc3nc2n2c1[nH]c(=O)c1ccccc12,1.2
CC1CCCN(S(=O)(=O)c2ccc(C(=O)Nc3nnc(-c4ccccc4Cl)o3)cc2)C1 (stereo unspecified),1.8
COC(=O)C1=C(N)Oc2cc(C)n(CCN3CCOCC3)c(=O)c2C1c1cccnc1 (stereo unspecified),0.2
CC1(C)CC(NCc2ccc3c(c2)OCO3)CCO1 (stereo unspecified),i
C=CCn1c(C)c(C(C)=O)c(SC)nc1=S,0.0
CC1(C)CC(=O)C(C2=NC(C)(C)Cc3ccccc32)=C(O)C1,i
COc1cc2nc(COc3ccc(C#N)cc3)n(CC#N)c(=O)c2cc1OC,i
CN(C)c1cccc(C(=O)NC2CCCCCC2)c1,1.8
COC(=O)c1cc(/C=C/c2ccccc2)on1,i

Assay outcomes: PubChem BioAssay, SRMLSC
